Screening results (PubChem)
Measles inh – inhibitors of measles virus growth in infected cells; infected Vero cells, GFP fluorescence, 64 h; active compounds read low; z-score (concentration not given with the values); hit rate 0.1% among 33,000; AID 745;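 active = z-score under -3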;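 note: score is relative to mean and SD of the compound wells of a plate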
The depositor's hits bear a star.

SMILES	Measles inh
O=C(Nc1cccc(C(F)(F)F)c1)c1cc([N+](=O)[O-])ccc1Cl	-1.1
Cc1ccc2nc(-c3ccc(O)cc3)c(Nc3ccccc3C)n2c1	-0.95
COc1cccc(N2CCN(C(=O)CC3Nc4c5ccccc5nc(=S)n4C3=O)CC2)c1 (configuration not stated)	-0.53
Cn1c(=O)cc(SCC(=O)N2CCCCC2)c2ccc(Cl)cc21	-1.3
CCOc1cc(C2C3=C(CC(C)(C)CC3=O)OC3=C2C(=O)CC(C)(C)C3)ccc1OC(=O)c1ccccc1F	1.5
O=C(CN1CCN(C2c3ccccc3-c3ccccc32)CC1)Nc1cccc(C(F)(F)F)c1	0.28
CCOC(=O)c1c(NC(=O)C2CC2)sc(C(=O)Nc2ccc(C)cc2C)c1C	-0.44
Cc1nc(Nc2ccc(S(N)(=O)=O)cc2)sc1C(=O)Nc1ccccc1	-0.12
C=CCSc1nnc2c(n1)OC(c1ccc(-c3ccccc3[N+](=O)[O-])o1)Nc1ccccc1-2 (configuration not stated)	0.76
Cc1ccc(S(=O)(=O)N(CC(=O)Nc2ccc3c(c2)OCO3)c2ccc(C)c(Cl)c2)cc1	2.7
Cc1ccc(-n2cc(-c3ccccc3)c3c(NC4CCCC4)ncnc32)cc1Cl	0.47
CCn1c(=O)c(C(=O)Nc2ccc(I)cc2)c(O)c2ccccc21	-0.22
O=C(Nc1cccnc1)c1ccc([N+](=O)[O-])cc1	-0.58
Cc1ccc(-n2cc(C(=O)NCc3ccc(F)cc3)c3ccccc3c2=O)cc1C	-2.4
COc1ccc2nc(NC(=O)Cn3cnc4sc(C)c(S(=O)(=O)N5CCCCC5)c4c3=O)sc2c1	-0.96
COc1ccc(N2C(=O)C3C4C=CC(C4)C3C2=O)c(OC)c1 (configuration not stated)	1.1
CC(NC(=O)C1CC(=O)N(C2CCCCC2)C1)c1ccccc1 (configuration not stated)	-0.2
c1ccc(CC2C3=C(CCCC3)Oc3ccccc32)cc1 (configuration not stated)	-0.24
Cc1nn(C(C)(C)C)c(OC(=O)CCC2CCCC2)c1Sc1ccccc1[N+](=O)[O-]	1.1
CC(C)N1C(=O)CCC1C(=O)NCCC1=CCCCC1 (configuration not stated)	-1
CCc1nc2sc3c(NCCN(C)C)ncnc3c2c2c1CCCC2	0.96
COc1cc(-n2c(=O)c3ccccc3n(CC(=O)NCc3ccco3)c2=O)cc(OC)c1OC	0.33
CC1CCCC(C)N1CC(O)COc1ccc(C2CCCCC2)cc1 (configuration not stated)	0.04
Cc1nc2c(C(=O)NC3CCCC3)cnn2c(C)c1Cc1ccccc1	-0.56
O=C(Nc1ccc(Cc2ccncc2)cc1)c1ccc(-c2cccc(Cl)c2)o1	-1
SMILES	Measles inh
O=[N+]([O-])c1cccc(CSc2nc3ccccc3n2S(=O)(=O)c2ccc(Cl)cc2)c1	-0.48
O=S(=O)(c1ccc(Br)cc1)N1CCCN(Cc2cccc(F)c2)CC1	0.39
O=C(CN1N=C(c2ccc(Cl)cc2)CCC1=O)NCCCN1CCc2ccccc2C1	0.03
O=C(O)c1ccc2nc(CCCO)[nH]c2c1	-0.13
COc1ccc(C2CC(=O)Nc3cc4c(cc32)OCO4)cc1O (configuration not stated)	-0.26
O=C(Nc1c2c(nn1-c1cccc(Cl)c1)CS(=O)(=O)C2)c1ccco1	0.75
CCOC(=O)c1ccc(NC(=O)COc2cc(C)c(Cl)c(C)c2)cc1	-0.32
C=CCC(Nc1ccccc1C)c1ccc(Cl)cc1 (configuration not stated)	-1.8
COc1ccc(-c2cc(C(F)(F)F)nc(N(C)C3CCCCC3)n2)cc1	-0.99
CCOc1ccc(S(=O)(=O)N2c3ccc(C)cc3C(C)=CC2(C)C)cc1	-1.2
O=C(NCc1ccc(F)cc1)c1ccc2nc3[nH]c4ccccc4c3nc2c1	-1.6
C=CCNC(=O)CCCn1c(=O)[nH]c2ccc(Br)cc2c1=O	-1
O=C(O)CCCC(=O)NCc1cccnc1	0.88
Cc1nc2sc(C(c3ccc(Br)cc3)N3CC(C)OC(C)C3)c(O)n2n1 (configuration not stated)	1.3
COc1ccc(CNCCC2(c3ccc(F)cc3)CCOC(C)(C)C2)cc1OC (configuration not stated)	-0.18
CCOCCCNC(=O)CN1N=C(c2ccccc2)CCC1=O	-0.3
COc1cc([N+](=O)[O-])ccc1NC(=O)c1ccc(S(=O)(=O)N2CC(C)CC(C)C2)cc1 (configuration not stated)	0.73
Nc1ncnc(NCc2ccc(F)cc2)c1[N+](=O)[O-]	-0.62
Cc1ccccc1Cn1c(=O)n(CC(=O)NCCc2ccccc2)c(=O)c2sccc21	-0.09
CCOc1ccc(-n2c(SC)nc3c([nH]c4ccccc43)c2=O)cc1	-0.67
CCc1nnc(NC(=O)c2c(OC)cccc2OC)s1	-0.28

Entries listed so far that contain sulfur, in the order listed:
SMILES	Measles inh
COc1cccc(N2CCN(C(=O)CC3Nc4c5ccccc5nc(=S)n4C3=O)CC2)c1 (configuration not stated)	-0.53
Cn1c(=O)cc(SCC(=O)N2CCCCC2)c2ccc(Cl)cc21	-1.3
CCOC(=O)c1c(NC(=O)C2CC2)sc(C(=O)Nc2ccc(C)cc2C)c1C	-0.44
Cc1nc(Nc2ccc(S(N)(=O)=O)cc2)sc1C(=O)Nc1ccccc1	-0.12
C=CCSc1nnc2c(n1)OC(c1ccc(-c3ccccc3[N+](=O)[O-])o1)Nc1ccccc1-2 (configuration not stated)	0.76
Cc1ccc(S(=O)(=O)N(CC(=O)Nc2ccc3c(c2)OCO3)c2ccc(C)c(Cl)c2)cc1	2.7
COc1ccc2nc(NC(=O)Cn3cnc4sc(C)c(S(=O)(=O)N5CCCCC5)c4c3=O)sc2c1	-0.96
Cc1nn(C(C)(C)C)c(OC(=O)CCC2CCCC2)c1Sc1ccccc1[N+](=O)[O-]	1.1
CCc1nc2sc3c(NCCN(C)C)ncnc3c2c2c1CCCC2	0.96
O=[N+]([O-])c1cccc(CSc2nc3ccccc3n2S(=O)(=O)c2ccc(Cl)cc2)c1	-0.48
O=S(=O)(c1ccc(Br)cc1)N1CCCN(Cc2cccc(F)c2)CC1	0.39
O=C(Nc1c2c(nn1-c1cccc(Cl)c1)CS(=O)(=O)C2)c1ccco1	0.75
CCOc1ccc(S(=O)(=O)N2c3ccc(C)cc3C(C)=CC2(C)C)cc1	-1.2
Cc1nc2sc(C(c3ccc(Br)cc3)N3CC(C)OC(C)C3)c(O)n2n1 (configuration not stated)	1.3
COc1cc([N+](=O)[O-])ccc1NC(=O)c1ccc(S(=O)(=O)N2CC(C)CC(C)C2)cc1 (configuration not stated)	0.73
Cc1ccccc1Cn1c(=O)n(CC(=O)NCCc2ccccc2)c(=O)c2sccc21	-0.09
CCOc1ccc(-n2c(SC)nc3c([nH]c4ccccc43)c2=O)cc1	-0.67
CCc1nnc(NC(=O)c2c(OC)cccc2OC)s1	-0.28

Ordered by SMILES length (highest first): part of the list above
SMILES	Measles inh
O=[N+]([O-])c1cccc(CSc2nc3ccccc3n2S(=O)(=O)c2ccc(Cl)cc2)c1	-0.48
O=C(CN1CCN(C2c3ccccc3-c3ccccc32)CC1)Nc1cccc(C(F)(F)F)c1	0.28
Cc1nc(Nc2ccc(S(N)(=O)=O)cc2)sc1C(=O)Nc1ccccc1	-0.12

An excerpt; count on the stated rates, not on these rows.
